Screening results (PubChem BioAssay)
Resorufin autofl = compounds fluorescent in resorufin spectral region; Compound fluorescence, resorufin region 547/598 nm, buffer; hits give high values; max dye-equivalent concentration, M; hit rate 0.04% among 59,000; AID 588; active = above 10 nM dye equivalent; inconclusive = 1 to 10 nM; inactive = 1 nM or less; a few of its hits are not listed in these tables; further: highest value over a series up to 38 µM
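Compounds in 100 mM Tris, pH 8.0, incubated 15 min at room temperature, then fluorescence read at 547 nm excitation/598 nm emission. Signal converted to dye-equivalent concentration via an on-plate six-point resorufin standard curve, per compound concentration.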
AID923 = qHTS Assay for Allosteric/Competitive Inhibitors of Caspase-1: Spectroscopic Profiling in AFC Spectral Region; compound fluorescence, AFC spectral region (405/520 nm); almost no hit is shown here; Potency, µM (doses to about 57.5 µM), for inactives: top-dose fluorescence increase, most hits filed as activators; hit rate 1.1% among 75,000; AID 923, 2007; active means well fitted activation curve with a large enough effect; inconclusive means small, poorly fitted or top-dose-only effect;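 further: potency means the concentration at half of the fitted maximal effect; 0% is about no effect; scaled to a free AFC standard on each plate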
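Titrations up to 57 uM read every 20 sec for 3 min (405/520 nm) with 50 nM caspase 1 and 5 uM Ac-WEHD-AFC, pH 7.5 HEPES buffer. Fluorescence-vs-time intercept gave baseline, scaled against on-plate AFC standard.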
TSHR agonist = TSH receptor (human) agonism. P16473. HEK293-CNG-TSHR cells (CNG channel as cAMP sensor), membrane potential dye, cAMP. Potency, µM (highest dose often 57.1 µM), inactives show at the top dose activation, hits mostly activators. hit rate 0.48% among 73,000; active = well fitted activation curve of enough size with the parental cells flat; inconclusive = any curve in the parental cells; inactive = parental cells flat and receptor cells flat or falling; further: potency means the concentration at half of the fitted maximal effect; % of control where 0% means no effect; weak receptor curves with flat parental cells got no call and are not listed
Target sequence (P16473 whole entry, looked up): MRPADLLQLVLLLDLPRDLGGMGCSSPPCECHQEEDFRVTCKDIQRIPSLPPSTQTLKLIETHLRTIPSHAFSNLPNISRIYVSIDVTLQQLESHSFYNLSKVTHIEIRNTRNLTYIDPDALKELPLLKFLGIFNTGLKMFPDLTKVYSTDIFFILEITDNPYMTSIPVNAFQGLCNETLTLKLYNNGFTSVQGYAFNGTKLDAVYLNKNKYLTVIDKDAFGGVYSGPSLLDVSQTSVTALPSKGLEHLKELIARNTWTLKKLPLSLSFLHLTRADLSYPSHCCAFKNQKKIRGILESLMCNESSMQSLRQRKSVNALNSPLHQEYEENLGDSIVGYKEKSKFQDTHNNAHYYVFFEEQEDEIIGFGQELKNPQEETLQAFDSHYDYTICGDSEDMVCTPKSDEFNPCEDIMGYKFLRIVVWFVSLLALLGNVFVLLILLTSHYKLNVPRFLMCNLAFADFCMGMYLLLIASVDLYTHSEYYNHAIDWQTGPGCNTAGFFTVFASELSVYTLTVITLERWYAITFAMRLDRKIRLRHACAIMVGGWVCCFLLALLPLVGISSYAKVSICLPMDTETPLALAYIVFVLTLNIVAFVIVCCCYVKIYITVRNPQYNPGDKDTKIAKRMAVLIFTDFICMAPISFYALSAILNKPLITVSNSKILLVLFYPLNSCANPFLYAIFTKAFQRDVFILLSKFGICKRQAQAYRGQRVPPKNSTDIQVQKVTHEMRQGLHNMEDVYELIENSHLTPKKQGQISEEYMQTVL
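HEK 293 cells stably expressing TSHR and a modified CNG channel, with CNG-only parental cells as counterscreen, were preloaded 60 min at room temperature with membrane potential dye containing 100 uM RO 20-1724. Compound exposure was 30 min, and depolarization was read as fluorescence at 590 nm.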
A488 autofl = compound fluoresces in the A488 spectral region. max dye equivalency, M. compound autofluorescence, A488 spectral region, dye equivalency; hits give high values. hit rate 0.1% among 59,000; active = above 10 nM dye equivalent; inconclusive = 1 to 10 nM; inactive = 1 nM or less; about half of its hits are not listed in these tables;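 further: highest value over a series up to 38 µM; compound alone in buffer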
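Readout is A488 dye-equivalent concentration, calibrated by a per-plate six-point Alexa 488 series. Compounds in 100 mM Tris buffer pH 8.0 were incubated 15 min at room temperature. Plates were imaged using 480 nm excitation/540 nm emission filters.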
A647 fluor = compound fluoresces in the A647 spectral region; Compound fluorescence, A647 channel (570/671 nm), Tris buffer; max dye-equivalent concentration, M; 59,000 tested, under 10 active; active means above 1 µM dye equivalent; inconclusive means 0.1 to 1 µM; inactive means 0.1 µM or less;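 further: values scaled relative to a standard on each plate; highest value over a series up to 38 µM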
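Fluorescence read (570 nm ex, 671 nm em) after 15 min RT incubation of compounds in 100 mM Tris buffer, pH 8.0; values expressed as dye-equivalent concentration against a six-point A647 standard series on each plate.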
Starred values were filed as active, the others as inactive; i = inactive; u = inconclusive; x = not tested or not shown; [ ] = remark or other dose. The list is partial; count on the stated rates, not on these rows.

Values run as follows: A488 autofl	A647 fluor	TSHR agonist	AID923	Resorufin autofl
> O=C(Nc1ccccc1C(=O)NC(Cc1c[nH]c2ccccc12)C(=O)O)c1ccco1 (configuration not stated)
 : x	x	-0.3%	0.4%	x
> Cc1cc(C)n(-c2nnc(C)c(=O)[nH]2)n1
 : x	x	1.6%[11.4 µM]	-1.2%	x
> COc1nc2ccc(C)cc2cc1-c1noc(-c2cccnc2)n1
 : i	8.96e-08	16.9%	0.4%	i
> Cc1ccc(S(=O)(=O)N(C)c2ccc(NS(C)(=O)=O)cc2)cc1
 : i	1.7e-09	5.7%	-1.8%	i
> COc1ccccc1CNc1ncncc1-c1ccc(C(=O)N(C)C)cc1
 : i	2.12e-08	u	0.0%	i
> COC(=O)C1CCN(C(=O)c2ccc(Cl)c(S(=O)(=O)NCc3cccnc3)c2)CC1
 : i	4.4e-09	0.5%	-0.2%	i
> O=C(COc1ccc(Cl)cc1)Nc1ccccc1C(=O)NCc1ccco1
 : i	2.74e-08	21.1%	-2.2%	i
> CCCOc1ccc(C2c3c(oc4cc(C)c(C)cc4c3=O)C(=O)N2CCCN(C)C)cc1OCC (configuration not stated)
 : x	x	4.6%	4.8%	x
> CC(C)C(C(=O)Nc1ccc2c(c1)OCO2)N1C(=O)c2ccccc2C1=O (configuration not stated)
 : x	x	u	1.1%	x
> C=CCn1c(SCC(=O)Nc2nc(C)cs2)nnc1C(CO)NC(=O)c1ccccc1 (configuration not stated)
 : i	2.1e-08	u	-1.4%	i
> COc1ccc(Cl)cc1NC(=O)CN1CCC(n2nnc3cc(C)ccc32)CC1
 : i	3.79e-08	-1.3%	-0.5%	i
> CC1CCCCN1CC(=O)Nc1sc2c(c1C#N)CCC2 (configuration not stated)
 : i	2.69e-08	4.2%	4.0%	i
> Cc1c(NC(=O)C2CCCN2S(=O)(=O)c2ccccc2)c(=O)n(-c2ccccc2)n1C (configuration not stated)
 : x	x	5.9%	-0.7%	x
> O=C1c2ccccc2-c2c1cccc2C(=O)N(CCO)CCO
 : x	x	-2.0%	2.0%	x
> CC(CN1CCOCC1)OC(=O)c1ccc(Br)cc1 (configuration not stated)
 : i	4.8e-09	22.0%	1.1%	i
> N#Cc1nc(N)nc(N(c2ccccc2)c2ccccc2)n1
 : i	2.6e-09	u	0.4%	i
> CC(=O)Nc1cccc(NS(=O)(=O)c2cccc3nsnc23)c1
 : i	1.37e-08	4.8%[11.4 µM]	0.7%	i
> Cc1ccc(S(=O)(=O)N2CCN(c3nc(C(C)C)c4c(c3C#N)CC(C)(C)OC4)CC2)cc1
 : i	4.29e-08	x	x	i
> CSCC[C@H](NC(=O)NCc1ccc(F)cc1)C(=O)O
 : i	1.29e-08	-1.2%	1.0%	i
> CC(C)(C)c1ccc(C(=O)NCCC(=O)NCc2ccco2)cc1
 : i	1e-09	-12.1%	0.3%	i
> CS(=O)(=O)N(CC(=O)N1CCCCC1)c1ccc2c(c1)OCO2
 : i	8.54e-08	2.6%	-3.8%	i
> Cc1nnc(C)c2c(C)n(C(C)c3ccccc3)c(C)c12 (configuration not stated)
 : i	5.1e-09	13.4%	18.5%	i
> Cc1ccc(S(=O)(=O)N2CCN(C(=O)C3CCCCC3)CC2)cc1
 : i	7.8e-09	6.7%	0.9%	i
> Cc1ccc(C(=O)c2ccc(O)cc2)cc1C
 : x	x	2.5%	0.6%	x
> O=C(O)c1ccc(Cl)c(S(=O)(=O)NCc2ccco2)c1
 : i	1e-09	21.7%	0.6%	i
> CCN(CC)CCCN1C(=O)C(=O)/C(=C(/O)c2ccc(Cl)cc2)C1c1ccccn1 (configuration not stated)
 : i	3.3e-09	x	x	i
> Cc1cc(OC(=O)N2CCOCC2)cc(C)c1Cl
 : i	1.93e-08	u	-1.1%	i
> CCOC(=O)C1CCN(C(=O)c2ccc(SC)cc2OC)CC1
 : i	1e-09	7.4%	1.0%	i
> COc1ccc(CCNC(=O)Cn2nnc(-c3cccs3)n2)cc1OC
 : i	6.81e-08	-0.8%	0.1%	i
> CC(C)(C)N(Cc1ccccc1)C(=O)c1ccc2c(c1)OCCO2
 : i	2e-09	u	2.6%	i
> C=CCN(C(=O)CSc1nc2[nH]ncc2c(=O)n1-c1ccccc1OC)c1ccccc1
 : i	1.24e-08	11.6%	1.9%	i
> COc1ccccc1NC(=O)N(Cc1ccco1)Cc1cc2ccc(C)c(C)c2[nH]c1=O
 : i	1.7e-09	18.8%	6.3%	i
> COc1ccc(C(C(=O)OCCN(C)C)c2ccccc2)cc1 (configuration not stated)
 : i	3.16e-08	4.0%[11.4 µM]	0.6%	i
> Cc1cccnc1N(C(=O)Nc1ccccc1)C1=NCC(C)(C)S1
 : i	3.4e-09	x	-1.7%	i
> Cc1cc(C)nc(SCc2nnc(SCC(=O)N3CCOCC3)o2)n1
 : i	7.4e-09	1.0%	-0.4%	i
> CC1=C(C(=O)OCc2ccccc2)C(c2ccoc2)C(C#N)=C(N)O1 (configuration not stated)
 : i	2.4e-09	13.2%	3.3%	i
> O=C(Oc1ccc(OC(=O)N2CCOCC2)cc1)c1ccccc1
 : i	5.4e-09	-5.5%	1.1%	i
> CCOc1ccccc1N1CCN(C(=O)c2ccncc2)CC1
 : x	x	-5.5%	4.2%	x
> O=c1c2ccccc2sc2c(CO)ccc(NCCN3CCCCC3)c12
 : i	6.06e-08	6.7%[11.4 µM]	-2.1%[11.5 µM]	i
> Cn1cc(Br)cc2nc(C(F)(F)F)nc1-2
 : i	2.2e-09	x	x	i
> Cn1c(SCC(=O)Nc2ccccc2F)nnc1-c1ccc(S(=O)(=O)N2CCOCC2)cc1
 : i	1e-09	u	0.9%	i
> O=c1cc(-c2ccccc2)[nH]n1-c1nc2ccccc2s1
 : i	1e-09	-2.8%	-1.8%	i
> O=C(c1ccc(CS(=O)(=O)c2cccc(C(F)(F)F)c2)o1)N1CCN(c2ccccn2)CC1
 : i	1e-09	u	-0.5%	i
> Cc1cnc(CNc2ncncc2-c2cccc(NS(C)(=O)=O)c2)cn1
 : i	2.92e-08	16.8%	-0.2%	i
> Cn1c(=O)c2c(SCc3ccccn3)nc(C3CC3)nc2n(C)c1=O
 : x	x	u	0.0%	x
> Clc1ccc(-c2nn3c(Cn4cnc5ccccc54)nnc3s2)c(Cl)c1
 : i	2.78e-08	u	1.5%	i
> CN(C)c1ccc(-c2ccccc2)nn1
 : i	1.99e-08	0.4%	-0.7%	i
> CC(C)(C)C1CCc2c(sc(NC(=O)c3cc(C4CC4)on3)c2C#N)C1 (configuration not stated)
 : x	x	8.0%	-2.1%	x
> COc1ccccc1NC(=O)C(C)Sc1nnnn1C (configuration not stated)
 : i	8e-09	u	0.2%	i
> CCOC(=O)C1CCCN(Cc2ccccc2OCC)C1 (configuration not stated)
 : i	4.7e-09	21.6%	0.5%	i
> Cn1c(CC(=O)Nc2ccccc2)nnc1SCCOc1ccccc1
 : i	1.74e-08	-9.5%	0.6%	i
> CCS(=O)(=O)N1CCC(C(=O)NCCCN2CCCCCC2)CC1
 : i	8.4e-09	7.1%	1.3%	i
> COc1cc(C#CC#CCN2CCCCC2)ccc1O
 : i	3.92e-08	u	-1.8%	i
> CNc1nc(-c2ccccc2Cl)nc2ccccc12
 : i	5e-09	4.0%	-0.4%	i
> C/C(=C\COc1cc(=O)[nH]c2ccccc12)CC[C@@H](O)C(C)(C)O
 : i	1e-09	0.8%	x	i
> C/C(Cl)=C/CSc1nc2c(c(=O)[nH]c(=O)n2C)n1C(C)C
 : i	1e-09	11.2%	-0.6%	i
> O=C(O)C(CCCCN1C(=O)C2C3C=CC(C3)C2C1=O)N1C(=O)C2C3C=CC(C3)C2C1=O (configuration not stated)
 : i	3.78e-08	2.6%	0.9%	i
> O=C1COc2ccc(C(=O)CSc3nnc(-c4cccs4)n3Cc3ccccc3)cc2N1
 : i	1.58e-08	x	1.2%	i
> O=C(C1Cc2ccccc2CN1S(=O)(=O)c1cccs1)N1CCCCC1 (configuration not stated)
 : i	8.92e-08	x	-0.8%	i
> CCc1ccc(S(=O)(=O)NC(CC(=O)O)c2ccccc2)cc1 (configuration not stated)
 : x	x	-1.1%	0.4%	x

The list continues:
Values run as follows: A488 autofl	A647 fluor	TSHR agonist	AID923	Resorufin autofl
> CCCNC(=O)c1c(N)n(-c2ccc3c(c2)OCO3)c2nc3ccccc3nc12
 : i	4e-09	-1.0%	2.1%	i
> CCOC(=O)C1CCN(C(=O)CN(c2cccc(OC)c2)S(=O)(=O)c2ccccc2)CC1
 : x	x	12.0%	-0.3%	x
> COc1cccc(C(=O)N(CN2CCCC2=O)c2cccc(Cl)c2)c1
 : i	3.73e-08	-5.0%	0.1%	i
> Cc1cc2ncn(CCOc3ccccc3C#N)c2cc1C
 : i	1e-09	13.9%	-0.7%	i
> O=C(CN1CCOc2ccccc21)NCc1ccccc1
 : x	x	u	-1.8%	x
> CN(C)c1ccc(CN2CCCCCC2)cc1
 : x	x	-2.1%[11.4 µM]	-0.6%	x
> CC(C)CC(NC(=O)C1CCC(C)CC1)C(=O)Nc1ccccn1 (configuration not stated)
 : i	1e-09	7.0%	-0.3%	i
> O=C1CCc2cc(S(=O)(=O)NC(Cc3ccccc3)C(=O)NC3CCCC3)ccc2N1 (configuration not stated)
 : x	x	0.2%	-0.5%	x
> COc1ccc(-c2nnn(CCc3nn[nH]n3)n2)cc1OC
 : i	1e-09	-4.9%	-0.1%	i
> COc1cc2c(C#N)c(N3CCc4ccccc4C3)nc(N)c2c(N)n1
 : i	3.3e-09	-16.1%	9.1%	i
> Cn1c(SCCOc2cccc(Cl)c2)nnc1-c1ccncc1
 : i	2.4e-09	4.9%	-1.4%	i
> Cc1onc(-c2c(Cl)cccc2Cl)c1C(=O)Nc1c(C)n(C)n(-c2ccccc2)c1=O
 : i	1e-09	-2.8%	-0.2%	i
> CC1=Nn2c(nnc2-c2ccccc2Cl)SC1
 : i	3.58e-08	12.4%	0.6%	i
> Cc1ccc(Cn2nnc3c(=O)n(CC(=O)c4ccccc4)cnc32)cc1
 : x	x	u	-2.8%	x
> CC1(C)CC(=O)C=C(Nc2ccccn2)C1
 : i	1.53e-08	-1.5%	1.7%	i
> C[N+]1=C2CCCCCN2C(O)(c2ccccc2)C1 (configuration not stated)
 : i	1.9e-09	2.3%	0.8%	i
> COc1ccc(C2CC(C(F)(F)F)n3nc(C(N)=O)c(Cl)c3N2)cc1OC (configuration not stated)
 : i	4.8e-08	-0.9%	2.3%	i
> Cc1c(F)cccc1NS(=O)(=O)c1ccccc1C#N
 : i	2.1e-09	0.4%	1.0%	i
> CCOC(=O)C(C(=O)Nc1cccc(C)n1)C1CCCCC1 (configuration not stated)
 : x	x	u	-0.9%	x
> NC(=O)SCC(=O)Nc1ccc(Cl)cc1
 : x	x	-31.8%[inhibitor]	0.0%	x
> COC(=O)CSc1nc(N)c(C#N)c(C(C)C)c1C#N
 : i	3.74e-08	1.4%	-1.7%	i
> COc1ccc(CCNC(=O)CSc2nnc(-c3ccc(F)cc3)o2)cc1OC
 : i	9.5e-09	5.6%	-1.0%	i

One compound at a time, as listed above. Screens in order: A488 autofl | A647 fluor | TSHR agonist | AID923 | Resorufin autofl
Results for `Cc1onc(-c2c(Cl)cccc2Cl)c1C(=O)Nc1c(C)n(C)n(-c2ccccc2)c1=O` : i | 1e-09 | -2.8% | -0.2% | i
Results for `CCOC(=O)C1CCN(C(=O)CN(c2cccc(OC)c2)S(=O)(=O)c2ccccc2)CC1` : x | x | 12.0% | -0.3% | x
Results for `O=C(Oc1ccc(OC(=O)N2CCOCC2)cc1)c1ccccc1` : i | 5.4e-09 | -5.5% | 1.1% | i
Results for `CC(C)(C)C1CCc2c(sc(NC(=O)c3cc(C4CC4)on3)c2C#N)C1` (configuration not stated) : x | x | 8.0% | -2.1% | x
Results for `O=C(O)C(CCCCN1C(=O)C2C3C=CC(C3)C2C1=O)N1C(=O)C2C3C=CC(C3)C2C1=O` (configuration not stated) : i | 3.78e-08 | 2.6% | 0.9% | i
